Screening data: PubChem BioAssay, several laboratories
GALR2 ag: GALR2 (human) receptor agonism; O43603; GALR2-expressing cells, agonist activation read-out; activation, %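 (tested at 5 µM)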; hit rate 0.48% among 140,000; AID 803;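 active means above mean plus 3 SD of all compounds, about 5% in these data, not always enough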;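 further: 0% = vehicle buffer wells and 100% = reference agonist at full effect; tested in CHO reporter cells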
PKD1 kinase inh: inhibitors of human PKD1 kinase. PKD1 kinase fluorescence polarization assay. hit rate 0.056% among 200,000. Q15139. inhibition, %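 (about 10 µM by stock and volumes)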;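 active means inhibition of 50% or more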;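 further: controls were vehicle for no effect and a reference inhibitor for full effect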
Target sequence (Q15139 whole entry, looked up): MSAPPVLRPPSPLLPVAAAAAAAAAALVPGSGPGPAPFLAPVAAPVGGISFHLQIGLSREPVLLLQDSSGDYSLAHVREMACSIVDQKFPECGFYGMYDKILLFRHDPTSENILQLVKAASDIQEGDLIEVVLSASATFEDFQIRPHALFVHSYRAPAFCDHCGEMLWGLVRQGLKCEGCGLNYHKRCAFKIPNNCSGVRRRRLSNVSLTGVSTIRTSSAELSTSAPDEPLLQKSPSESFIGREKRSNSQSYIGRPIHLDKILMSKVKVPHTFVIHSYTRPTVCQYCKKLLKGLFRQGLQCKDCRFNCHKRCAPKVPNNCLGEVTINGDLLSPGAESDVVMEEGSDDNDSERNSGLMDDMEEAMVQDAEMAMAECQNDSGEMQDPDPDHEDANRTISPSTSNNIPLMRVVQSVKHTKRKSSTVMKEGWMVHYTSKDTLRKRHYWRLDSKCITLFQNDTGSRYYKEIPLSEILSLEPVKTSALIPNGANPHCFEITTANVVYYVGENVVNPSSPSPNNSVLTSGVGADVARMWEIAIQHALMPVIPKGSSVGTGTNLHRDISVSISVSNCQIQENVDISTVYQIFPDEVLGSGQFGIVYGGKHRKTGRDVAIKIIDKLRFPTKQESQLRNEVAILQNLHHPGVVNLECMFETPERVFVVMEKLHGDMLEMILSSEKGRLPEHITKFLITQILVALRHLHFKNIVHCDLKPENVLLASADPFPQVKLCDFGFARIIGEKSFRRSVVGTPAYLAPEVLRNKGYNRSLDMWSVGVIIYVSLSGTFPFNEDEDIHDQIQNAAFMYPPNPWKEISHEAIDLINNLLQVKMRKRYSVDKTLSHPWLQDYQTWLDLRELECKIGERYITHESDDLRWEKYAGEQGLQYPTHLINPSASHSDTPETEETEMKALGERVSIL
HSV replic up: increases HSV replication in cells | HSV replication augmentation in cells, fold increase | maximum fold increase | hit rate 0.005% among 220,000 | AID 1956;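 active means peak rise of 1.5-fold or more in the series; inconclusive means self-fluorescent or not available for retest; tested in PC3 cells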;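 further: first round at 10 µM; read as green reporter fluorescence; hits show the peak of a series up to 25 µM; 1 = signal of infected wells without compound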
RGS16-Gao HTS: modulates binding between human RGS16 and Galphao; O15492+P09471; bead-based flow cytometry RGS16-Galphao binding, fluorescence; actives lie on both sides; binding response (% of control), % at 10 µM; hit rate 0.38% among 220,000; AID 1441;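 active means below 25% or above 175%, edge rows of some plates excepted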;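 further: Galphao activated by GDP with aluminum fluoride before binding; 100% = wells without compound and 0% = beads without RGS; some results beyond the cut were filed as inactive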
INS promoter inh: TRM-6 insulin promoter activity inhibition; inhibition, % at 2 µM; hit rate 0.9% among 130,000; TRM-6 cells (human fetal islet line), insulin promoter-eGFP reporter, imaging; reporter expression induced with tamoxifen;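 active means inhibition above the mean plus 3 SD, with well images judged a real hit on visual review, cut at about 60% in these data, passing the limit was not always enough; inconclusive means inhibition over the cutoff but images rejected on review; inactive means inhibition not above the cutoff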
INS promoter inh cell count: recorded beside INS promoter inh, whose call it bears; normalized cell count, %; measured here: cell count, toxicity; reference of the scale not given here;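 cells exposed to compound for 48 h; stained nuclei by imaging scaled within each plate; lower means fewer cells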
HSV replic up primary fold: further read-out of HSV replic up, marked with its call; fold increase; compound at 10 µM; measured here: primary screen fold increase 10 uM; tested in PC3 cells;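 GFP signal in the first replicate; 1 = infected wells without compound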
Starred values were filed as active, the others as inactive; i = inactive; u = inconclusive; x = no result given.

Values in the order – HSV replic up	PKD1 kinase inh	INS promoter inh	INS promoter inh cell count	GALR2 ag	RGS16-Gao HTS	HSV replic up primary fold
CCCOc1ccc(C(=O)Nc2nc(C)c(Cc3ccc4c(c3)OCO4)s2)cc1
    i	-10	-8	113	-0.5	106	0.69
COc1ccc(NC(=O)c2ccc3c(SCC(=O)O)c4c(nc3c2)CCCC4)c(OC)c1
    i	-4	14	144	x	101	0.85
Cc1ccc(Nc2c(-c3ccccc3O)nc3cnccn23)cc1
    i	0	x	x	x	110	1.1
O=C(CCCCCNc1nc(=S)[nH]c2ccccc12)NCc1ccccc1Cl
    i	-2	-71	122	x	102	0.86
COc1cc(CC(=O)NCCc2ccc(S(N)(=O)=O)cc2)cc(OC)c1OC
    i	-2	19	93	-3.5	105	0.98
CCOC(=O)Cn1nnc(-c2ccc(OCC(C)C)cc2)n1
    i	-3	9	77	-2.0	114	0.96
CCNc1nc(NCC)nc(SCCOc2ccc(C)cc2)n1
    i	-10	0	80	-2.5	100	1.1
O=C(CN1C(=O)CC(c2ccccc2)=Nc2ccccc21)NC1CCCCC1
    i	-8	-10	130	-0.8	100	0.83
O=C(O)c1ccc(CSc2ccccn2)cc1
    i	8	x	x	x	103	1
C=CCn1c(SCC(=O)O)nnc1-c1ccc(C(C)(C)C)cc1
    i	5	36	132	-0.4	103	0.9
C=CCn1c(NCCO)nc2sc3c(c2c1=O)CCC3
    i	0	x	x	-0.7	103	1.1
O=c1c(Cc2ccccc2)c(O)ccn1Cc1ccc2c(c1)OCO2
    i	9	x	x	x	102	0.94
O=C(O)C(Cc1ccccc1)N1C(=O)c2cccc3cccc(c23)C1=O (centres undefined)
    i	-1	x	x	x	106	1
COc1ccc(C2=Nn3c(nnc3-c3cccnc3)SC2)cc1
    i	-7	13	78	1.3	97	0.7
O=C(O)CCN1CC2([N+](=O)[O-])CC=C(OCCO)C([N+](=O)[O-])(C1)C2 (centres undefined)
    i	6	35	106	x	100	0.97
Cc1ccc(S(=O)(=O)Nc2ccccc2C(=O)Nc2sccc2C(=O)NN(C)C)cc1
    i	-10	32	119	-1.7	99	0.9
Cc1onc(-c2ccccc2)c1-c1ccnc(N)n1
    i	x	x	x	x	97	1.1
Cc1ccc(C)c(NC(=O)C(=O)NCc2ccccn2)c1
    i	-8	16	119	-0.4	70	1
CC(C)(C)C(=O)NC(=S)Nc1ccc(S(=O)(=O)Nc2nccs2)cc1
    i	-6	x	x	x	104	0.94
COC(=O)CNC(=O)c1ccc(OC2CCN(C(=O)C3CC3)CC2)cc1
    i	1	x	x	x	101	1.1

3 entries already listed, ordered by number of heavy atoms, descending:
Values in the order – HSV replic up	PKD1 kinase inh	INS promoter inh	INS promoter inh cell count	GALR2 ag	RGS16-Gao HTS	HSV replic up primary fold
CCCOc1ccc(C(=O)Nc2nc(C)c(Cc3ccc4c(c3)OCO4)s2)cc1
    i	-10	-8	113	-0.5	106	0.69
O=C(CN1C(=O)CC(c2ccccc2)=Nc2ccccc21)NC1CCCCC1
    i	-8	-10	130	-0.8	100	0.83
Cc1ccc(C)c(NC(=O)C(=O)NCc2ccccn2)c1
    i	-8	16	119	-0.4	70	1

Remaining list, next part.
Values in the order – HSV replic up	PKD1 kinase inh	INS promoter inh	INS promoter inh cell count	GALR2 ag	RGS16-Gao HTS	HSV replic up primary fold
CCOC(=O)c1c(C)c(C(=O)NCC2CCCO2)c(C)n1C (centres undefined)
    i	-2	-12	111	-0.7	101	0.95
CCCCN=C(Nc1ccc(Cl)cc1)c1cccnc1
    i	-6	42	158	-3.6	101	0.85
Cc1noc(C)c1CSc1nnc(-c2ccccc2)n1N
    i	-3	21	66	-1.1	95	0.96
Cc1cccn2cc(-c3ccc(NC(=O)Cc4ccccc4)cc3)nc12
    i	2	x	x	x	100	0.88
COC(=O)COc1cccc(NC(=O)c2ccccc2)c1
    i	-6	x	x	-0.1	102	1.1
CN1CCN(NC(=O)c2ccc(S(=O)(=O)N3CCCCCC3)cc2)CC1
    i	-1	x	x	x	99	0.96
O=C1C2C3C=CC(C3)C2C(=O)N1CCCO (centres undefined)
    i	-1	34	122	-3.7	109	0.99
O=Cc1cn(-c2ccc(F)cc2)c2ccccc12
    i	-10	-3	48	-2.2	128	0.89
CCOC(=O)c1ccc(N2C(=O)CC(N3CC(C)OC(C)C3)C2=O)cc1 (centres undefined)
    i	-8	58	99	-2.1	95	1
O=C(CSc1cccc[n+]1[O-])NC(=O)c1ccc(OC(F)F)cc1
    i	2	x	x	x	96	0.96
COc1ccc(N2CC(C)(C)C2=O)cc1
    i	0	12	101	x	105	1.1
COc1ccc(/C=N/NC(=O)C2(O)c3ccccc3-c3ccccc32)cc1
    i	-5	-30	124	-1.6	103	0.83
Cc1ccc(S(=O)(=O)N2CCN(C(=O)CN3CCCCC3)C2)cc1
    i	-1	-12	78	0.4	112	1
COC(=O)/C=C1/N/C(=N\c2nc(C)cc(C)n2)N(c2cccc(C)c2)C1=O
    i	9	x	x	-0.6	102	1.1
Cc1nc2cc(NC(=O)NCCCO)ccc2o1
    i	-8	x	x	x	100	1.1
Cc1ccc(-c2nnn(CC(=O)N(C)C3CCCCC3)n2)o1
    i	2	74*	91*	x	102	0.92
CC(c1nc2ccccc2c(=O)[nH]1)N(C)CCOc1ccc(Cl)cc1 (centres undefined)
    i	x	x	x	x	102	1.1
COc1ccc(OC)c(C(C)NC(=O)c2ccc(Br)cc2)c1 (centres undefined)
    i	-4	0	132	0.0	97	0.89
Cc1cccc(NC(=O)C2CCCN(C(=O)NC3CCCCC3)C2)c1C (centres undefined)
    i	-16	x	x	-2.3	99	0.75
CCOc1ccc(C(=O)Nc2ccc(NC(=O)c3ccco3)c(Cl)c2)cc1Cl
    x	-1	16	81	-0.3	94	x
Cc1nn(-c2ccccc2)c(N2CCCC2)c1/C=N/NC(=O)C1CC1
    i	6	x	x	x	121	1
NC(=O)CC(NC(=O)Cc1ccc(Br)cc1)c1ccc(NCc2ccc(F)c(F)c2)c([N+](=O)[O-])c1 (centres undefined)
    i	x	x	x	x	101	0.88
CC(=O)Nc1ccc(S(=O)(=O)NC2(C(F)(F)F)NC(=O)N(CC(C)C)C2=O)cc1 (centres undefined)
    i	4	x	x	x	86	1.1
CCOCc1cn(CC(=O)c2ccc(Cl)cc2)c(C)nc1=N
    i	4	57	68	-1.8	101	0.91
CC12C(=O)N(Cc3ccccc3)C(=O)C1C1C=CC2C1 (centres undefined)
    i	-5	-8	95	-1.3	98	0.79
COc1ccc(S(=O)(=O)Nc2nc3ccccc3s2)cc1OC
    i	0	61	64	-2.4	101	0.89
Cc1ccc(S(=O)(=O)N2CCC(=O)N(CCOC(=O)Nc3cc(C)cc(C)c3)CC2)cc1
    i	-4	-67	98	-0.1	97	0.74
C=CCn1cc(C(=O)NCc2ccc(Cl)cc2)c(=O)c2cc(S(=O)(=O)N(CC)CC)ccc21
    i	-3	0	110	0.1	101	0.77
Cc1ccc(N2C(=O)C3C4C=CC(CNC(=S)Nc5ccc(Cl)cc5)(O4)C3C2=O)cc1 (centres undefined)
    i	-5	46	45	-1.2	112	1
Cc1ccc(/C=C/S(=O)(=O)NCC(=O)O)cc1
    i	0	x	x	x	120	0.97
COc1cc(/C=C(\C#N)c2nc3ccccc3o2)ccc1O
    u	x	x	x	x	93	x
COCCn1c(SCc2ccc(C(=O)OC)o2)nc2cc(Cl)ccc2c1=O
    i	-3	x	x	0.4	99	0.94
Cc1ccc(C(=O)NNS(=O)(=O)c2ccccc2[N+](=O)[O-])cc1
    i	3	-57	90	-1.7	105	0.83
COC(=O)C1=C(NC(=O)COc2ccc3ccccc3c2)CCS1
    x	9	x	x	-2.0	104	x
Cc1ccc(-c2nn3c(C)nnc3c3ccccc23)cc1S(=O)(=O)N(C)CCO
    i	8	-44	109	-0.7	101	0.89
CC(C)(O)C#Cc1ccc(C(=O)N2CCCC2C(=O)O)s1 (centres undefined)
    i	1	62	128	-3.5	101	0.98
O=C(Nc1ccccc1)N1CCCCC1c1cccnc1 (centres undefined)
    i	0	59	127	-3.9	98	1.1
COc1ccc(-n2c(C)cc(/C=C3\SC(=S)N(Cc4ccco4)C3=O)c2C)cc1
    u	-6	-245	105	-1.6	119	x
Cc1cc(NC(=NC2CC2)c2ccccc2F)n(-c2ccccc2)n1
    i	1	x	x	x	105	0.98
Cc1cc(C)n2c(C)nnc2c1
    i	x	x	x	x	103	0.85
CCn1c(COc2ccc(=O)n(-c3ccccc3)n2)nnc1SCc1ccccc1
    i	-12	x	x	-0.9	105	0.87
CCCCN(C(=O)Cn1nnc2ccccc21)C(C(=O)NCCOC)c1ccc(OC)cc1 (centres undefined)
    i	1	x	x	-0.9	48	0.65
COc1ccc(C(=O)Nc2cc(=O)n(C)c(=O)n2C)cc1
    i	-5	-27	80	x	105	1
Cn1c(N)c(C(=O)COC(=O)c2cc(-c3ccccc3)nc3ccccc23)c(=O)n(Cc2ccccc2)c1=O
    i	-9	45	109	-1.2	106	0.83
Cc1csc(NC(=O)CSc2ccccc2F)n1
    i	0	x	x	x	97	1.2
O=C(CSc1ccc2c(c1)OCCO2)NCCN1C(=O)CSC1=O
    i	18	-22	133	-2.7	106	1
O=C(NC1CCCCC1)C(c1cccnc1)N(CCc1ccccc1)C(=O)Cc1cccs1 (centres undefined)
    i	-7	-53	74	0.0	93	0.95
O=C(CSCc1cccc(Cl)c1)N1CCN(Cc2ccc3c(c2)OCO3)CC1
    i	2	-70	61	-2.2	101	1
c1ccc(-c2nc(NCC3CCCO3)c3ccccc3n2)nc1 (centres undefined)
    i	-15	64	80	0.4	82	0.6
COc1cc(-c2[nH]nc3c2C(c2ccco2)C(C#N)=C(N)O3)cc(OC)c1OC (centres undefined)
    i	-5	17	79	-0.8	101	1.1
O=C(CCn1nc(-c2ccccc2)c2ccccc2c1=O)N1CCN(c2ccccc2)CC1
    i	-14	-27	86	-2.6	110	1
C/C=C\C(=O)Nc1cccc(C2=NOC3(C2)C[C@H](C(N)=O)N(C(=O)Cc2ccc([N+](=O)[O-])cc2)C3)c1 (some centres undefined)
    i	x	x	x	x	109	0.9
COc1cccc(NC(=O)c2ccccc2NS(C)(=O)=O)c1
    i	-10	11	134	-2.9	93	1
O=C(NCc1cccnc1)C(=O)Nc1ccc([N+](=O)[O-])cc1
    i	-4	x	x	x	106	0.97
O=C(Nc1ccccc1N1CCCCC1)c1cccc([N+](=O)[O-])c1
    i	-2	x	x	x	102	1
CC1(C)CC(=O)C2=C(C1)NCN(Cc1ccccc1)C2
    i	0	10	113	-3.7	104	0.79
Cc1nn(CCCC(=O)O)c(C)c1[N+](=O)[O-]
    i	-7	x	x	x	98	0.59
COc1cc2c3c(c1OC)C1(C=CC(=NO)C=C1)CC3N(C(C)=O)CC2 (centres undefined)
    i	0	x	x	-3.3	104	0.95
COc1ccc(C2C(C#N)=C(N)Nc3onc(C(C)(C)C)c32)c(OC)c1 (centres undefined)
    i	-17	3	79	0.1	60	0.75
O=C(Oc1ccccc1Cl)c1ccc(N2CCOCC2)c([N+](=O)[O-])c1
    i	-7	38	158	-1.5	99	0.98

(further entries)
Values in the order – HSV replic up	PKD1 kinase inh	INS promoter inh	INS promoter inh cell count	GALR2 ag	RGS16-Gao HTS	HSV replic up primary fold
Cc1ccc2nc3sc(C(=O)N4CCCc5ccccc54)c(N)c3cc2c1
    i	-3	x	x	-1.6	102	0.95
Cc1ccc(-c2csc3ncn(CC(=O)N4CCOCC4)c(=O)c23)cc1
    i	-2	-257	50	-1.9	105	1
N#CCSc1nc2c(c(=O)n1Cc1ccco1)C1(CCCC1)Cc1ccccc1-2
    i	6	36	80	-2.8	x	1
N/C(=N\OC(=O)CCCOc1ccc(Cl)cc1Cl)c1ccccn1
    i	-4	x	x	x	106	0.95
COc1cccc(OC)c1C(=O)NC(=S)Nc1ccc2c(c1)Cc1ccccc1-2
    i	-8	8	96	-0.6	95	0.7
O=C(Cn1c(C(F)(F)F)nc2ccccc21)c1ccccc1
    i	-7	x	x	-1.3	103	1.1
O=C1C2C3C=CC(C3)C2C(=O)N1CNc1ccccc1 (centres undefined)
    i	-7	3	55	-0.8	112	0.84
C[C@@H]1CN=C2N(CCNC(=O)CCC3CCCCC3)[C@H](Cc3ccc(O)cc3)CN21
    i	8	x	x	x	97	0.9
CCC(=O)N(C)CCc1cc2c(c(OC)c1/C=N/NC(=O)[C@H]1C[C@@H]1c1ccccc1)OCO2
    i	x	x	x	x	98	1

This is a random part of the collection. About 1.3% of those tested had a hit in this group.
